Screening data from PubChem.
VCAM-1 rise: boosters of cytokine-driven VCAM-1 levels – cell-based, plate reader, pooled HUVEC, TNFa stimulus (AID 455) | HUVEC TNFa-induced VCAM-1 immunofluorescence, plate reader; numbers were filed only for top-ranked candidate wells | augmentation, % at 5 µM | actives 0.2% (n = 10,000);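 active = a compound raising TNF-alpha-driven VCAM-1 surface staining, with its hit status upheld on visual or statistical review; inactive = the rest, including hits rejected on review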;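 also: 0% = TNFa with vehicle and 100% = strongest image-checked hit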
Proteasome disasm: blocks ATP-dependent breakdown of the yeast 26S proteasome | anti-FLAG beads, GFP-proteasome disassembly, flow cytometry | actives 0.2% (n = 24,000) | inhibition of disassembly, % (no concentration beside the values);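 active = above 40%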;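 also: plate controls were ATP control with full disassembly for no effect and ATP-gamma-S intact proteasomes for full effect; higher percent means more bead fluorescence retained so stronger block of disassembly; stock transfer was 100 nL into about 10 µL; wells with too few beads may also be inconclusive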
Active calls of the source: *; i = inactive; nt = not tested or not shown. These rows are one share of the data. The share of hits here may be higher or lower than overall.

molecule | VCAM-1 rise | Proteasome disasm
CCCCNC(=O)CN1C(=O)C(CC)Oc2ccc(Cl)cc21 (stereo unspecified) | nt | -0.3
CC1CCN(c2oc(-c3ccccc3F)nc2C#N)CC1 | i | -0.7
O=C(O)c1ccc2c(c1)[C@@H]1C=CC[C@@H]1[C@H](c1ccccn1)N2 | nt | 0.2
COC(=O)C1=C(C)N(Cc2ccco2)C(=O)C1 | i | 4.4
COc1cccc(NC(=O)N2CCCC2C(=O)NC(C)C)c1 (stereo unspecified) | i | -0.2
Cc1ccc2c(c1)c1c(n2CC(O)Cn2nc(C)c(Br)c2C)C(=O)CCC1 (stereo unspecified) | nt | 0.2
COc1ccc(C2CC(c3cccc(C)c3)n3nc(N)nc3N2)cc1 (stereo unspecified) | nt | 0.1
COc1ccc(N2CCN(C(=O)c3ccc(CNc4c(N5CCOCC5)c(=O)c4=O)cc3)CC2)cc1 | nt | -0.1
COCCN1Cc2cccc(C(=O)NC3CCCCCC3)c2C1=O | nt | 2.6
COc1cc(-c2nnc(SCC(=O)c3ccccc3)o2)cc(OC)c1OC | nt | 1.7
Cc1onc(-c2ccccc2Cl)c1C(=O)N1CCc2ccccc21 | i | -1.2
COc1ccc(N2C(=O)NC3CC2(C)Oc2ccc(Cl)cc23)cc1OC (stereo unspecified) | nt | -0.3
CCn1c(Cc2ccccc2)nnc1SCC(=O)Nc1cc(C)on1 | i | -1.1
CCOc1ccc(NC(=O)CSc2nc3cccnc3n2CC)cc1 | i | 3.8
C=CCOc1cccc(C2c3c(oc4ccccc4c3=O)C(=O)N2c2ccccn2)c1 (stereo unspecified) | nt | -2.1
COc1ccc(N2CCN(C(=O)c3ccc4c(=O)n(CC5CCCO5)c(=O)[nH]c4c3)CC2)cc1 (stereo unspecified) | nt | -2.3
N#Cc1nc(COc2ccccc2F)oc1NCc1ccc(F)cc1 | nt | 0.5
COc1ccc(-c2cc(C(=O)N3CCCCC3)no2)cc1OC | nt | -0.2
O=C(c1ccco1)N1CCN(C(=O)C2CC(c3ccc(F)cc3)=NO2)CC1 (stereo unspecified) | i | -0.7
CCOC(=O)c1[nH]c2c(c1C)C(=O)CC(c1ccc(OCC)c(OC)c1)C2 (stereo unspecified) | nt | 0.0
NCCCCCNC(=O)/C=N\O | nt | 0.2
CC(=O)Oc1ccc(C(=O)Nc2nccs2)cc1 | nt | 3.0
COc1ccc(OC)c(Nc2nc(-c3sc(N)nc3C)cs2)c1 | i | -4.2
COc1ccccc1N1CCN(CC(O)COc2cccc3ccccc23)CC1 (stereo unspecified) | i | 0.1
CCC(=O)N1CCc2cc(S(=O)(=O)N3CCc4ccccc4C3)ccc21 | nt | 0.9
CN(c1ccc(F)cc1)S(=O)(=O)c1ccc2[nH]cc(C(=O)O)c(=O)c2c1 | nt | -0.9
Nc1c(C2=NCCO2)nnn1Cc1ccccc1 | i | -0.4
O=C(Nc1nsc(-c2ccccc2)n1)c1cccs1 | nt | 0.5
Cc1ccccc1-c1nc(CS(=O)(=O)CC(=O)NCc2ccc3c(c2)OCO3)c(C)o1 | i | 0.5
O=C(CSc1nnc2scc(-c3ccccc3)n12)Nc1nsc(-c2ccccc2)n1 | i | 1.7

(continued)
molecule | VCAM-1 rise | Proteasome disasm
COc1ccc(CN2C(=O)CN=C2Nc2ccc(C)cc2C)cc1 | i | -4.0
O=C(NC1CC1)c1cccc(Nc2ccc(-c3ccc4c(c3)OCCO4)nn2)c1 | i | -2.3
Cc1ccccc1Oc1ccc(S(=O)(=O)NCCC(=O)O)cc1 | nt | -2.7
CN1CC=C2C(C#N)=C(N)C(C#N)(C#N)C(c3cccc(Cl)c3Cl)C2C1 (stereo unspecified) | 43 | 17
Cc1cc(-c2ccco2)n(CC(=O)NCc2ccco2)n1 | nt | 0.4
CC(=O)NCC(=O)N(C)C(C(=O)Nc1ccc2c(c1)OCCO2)c1ccccc1 (stereo unspecified) | nt | 2.1
O=C(Cn1cccc1C(=O)c1ccccc1)NCc1cccnc1 | nt | -0.9
Cc1cccc(-n2ncc3c(N4CCC5(CC4)OCCO5)ncnc32)c1 | i | 0.2
C[N+]12CCC(CC1)C(OC(=O)C(O)(c1ccccc1)c1ccccc1)C2 (stereo unspecified) | i | 1.2
CC1CCCC(C)N1C(=O)Cn1c(=O)sc2ccccc21 (stereo unspecified) | nt | 0.2
Cc1ccc2c(COn3nnc4ccc(S(=O)(=O)N(C)C)cc43)cc(=O)oc2c1C | i | 1.1
CCCCNC(=O)CC(NS(=O)(=O)c1ccc(C)cc1)c1ccco1 (stereo unspecified) | nt | 0.5
Cc1ccc(-c2noc(C3CCCN(C(=O)c4ccc(F)cc4F)C3)n2)cc1 (stereo unspecified) | i | 0.6
CCn1c(NCc2ccc(N(C)C)cc2)nc2ccccc21 | i | -0.5
CCCCCC1CC(CC#CCN2CCOCC2)C(=O)O1 (stereo unspecified) | i | 3.9
COC(=O)CC1Oc2ccccc2N(Cc2ccccc2)C1=O (stereo unspecified) | nt | -0.2
O=C(CSc1ncn[nH]1)Nc1nnc(-c2ccccc2)s1 | nt | 0.6
Cc1nc2cc(N3CCCCC3)c(NC(=O)c3cccnc3)cc2c(=O)n1Cc1ccccc1 | i | 7.2
COc1ccc(C2CC(c3ccc(Cl)cc3)n3nc(N)nc3N2)cc1 (stereo unspecified) | nt | -1.4
Cc1ccc(-n2nc3c(c2NC(=O)C(C)(C)C)CSC3)c(C)c1 | nt | 0.3
O=C(O)c1cc2cc(F)ccc2[nH]1 | i | 0.2
COc1ccc(/C=C/C(O)=C2/C(=O)N(C)C3(C)CC2c2ccccc2O3)cc1 (stereo unspecified) | nt | 1.7
Cc1cc(C)nc(SCc2nnc(SCC(=O)Nc3ncc(C)s3)n2Cc2ccco2)n1 | i | 1.3
COC(=O)c1nn(-c2ccc(-c3ccccc3)cc2)cc1O | i | 1.4
O=C(Nc1ccc2c(c1)OCO2)C1CCCCN1S(=O)(=O)c1ccc(F)cc1 (stereo unspecified) | nt | 0.9
OC(COc1ccc2ccccc2c1)CN1CCOCC1 (stereo unspecified) | i | 0.3
CCOc1ccc(CSC(CC(=O)O)C(=O)O)cc1 (stereo unspecified) | i | -7.3
O=c1c2cc(Cl)ccc2[nH]c(=S)n1Cc1ccco1 | i | -1.1
O=C(NCc1ccco1)c1cccc(S(=O)(=O)N2CCCCC2)c1 | i | -4.5
COc1ccc(OC)c(CNC(=O)CCc2nc(-c3cccs3)no2)c1 | nt | 0.5

Random excerpt: 5 entries already listed
molecule | VCAM-1 rise | Proteasome disasm
COc1ccc(CN2C(=O)CN=C2Nc2ccc(C)cc2C)cc1 | i | -4.0
Cc1ccc2c(COn3nnc4ccc(S(=O)(=O)N(C)C)cc43)cc(=O)oc2c1C | i | 1.1
CN1CC=C2C(C#N)=C(N)C(C#N)(C#N)C(c3cccc(Cl)c3Cl)C2C1 (stereo unspecified) | 43 | 17
O=C(O)c1cc2cc(F)ccc2[nH]1 | i | 0.2
OC(COc1ccc2ccccc2c1)CN1CCOCC1 (stereo unspecified) | i | 0.3

The listing continues:
molecule | VCAM-1 rise | Proteasome disasm
CCc1ccc(NC(=O)Cn2c(=O)n(CCCC(=O)NCc3ccco3)c(=O)c3ccccc32)cc1 | nt | -2.2
COCc1ccccc1Cn1cnc2c1c(=O)n(C)c(=O)n2C | i | 0.1
CCOc1cc2[nH]c(=O)n(CCCCCC(=O)NCc3ccc4c(c3)OCO4)c(=O)c2cc1OCC | nt | 0.1
COC(=O)c1ccc2c(c1)NC(=O)C(N1CCCC1)S2 (stereo unspecified) | nt | 20
O=C(NCCN1CCCC1)C1(S(=O)(=O)c2ccc(Cl)cc2)CC1 | nt | -1.3
CCC(=O)Nc1nonc1-c1nc2ccccc2n1N(C(=O)CC)C(=O)CC | nt | 0.7
CCN1CCN(CCCNC(=O)C(NC(=O)C2CCC(C)CC2)C(C)C)CC1 (stereo unspecified) | nt | -0.2
O=C(NCc1ccncc1)c1cccc(Cn2cc(Br)cn2)c1 | nt | -1.3
CCCN(CCC)CCNC(=O)C1CCCN(S(=O)(=O)c2ccc3c(c2)oc(=O)n3C)C1 (stereo unspecified) | nt | -1.0
CCOC(=O)c1sc2nc(CC(=O)OC)nc(NCc3ccco3)c2c1C | nt | 1.7
CCS(=O)(=O)N1CCC(C(=O)NCCc2ccc(C)cc2)CC1 | i | -0.3
Cc1cccc(OCCCC(=O)O)c1 | i | -0.9
Cn1c(=O)oc2cc(S(=O)(=O)NC(Cc3ccccc3)C(=O)N3CCCCC3)ccc21 (stereo unspecified) | nt | 0.5
CCOC(=O)c1cc2cc(F)ccc2nc1C | i | -0.5
CCCCc1cc(=O)oc2cc(C)cc(OC(C)C(=O)O)c12 (stereo unspecified) | i | -0.3
CCOCCCNC(=O)c1ccc(CS(=O)(=O)Cc2cccc(C)c2)o1 | nt | -1.1
O=C(c1ccc(Br)cc1)N1CCN(S(=O)(=O)c2ccccc2)CC1 | i | 0.2
COc1cc(OC)cc(-n2nc(C(=O)NCCCN3CCOCC3)c3ccccc3c2=O)c1 | nt | 0.5
CCOc1ccccc1OCC(=O)Nc1ccc(S(=O)(=O)Nc2nc(C)cc(C)n2)cc1 | nt | 0.9
COc1ccc(OC)c(-c2cc(C(=O)N3CCc4ccccc4C3)no2)c1 | nt | 0.5
Cc1[nH]nc2c1C(c1cn[nH]c1-c1ccc(F)cc1)C(C#N)=C(N)O2 (stereo unspecified) | nt | -0.3
O=C1CC(c2cccc(Br)c2)C2=C(CCCC2=O)N1 (stereo unspecified) | nt | 2.9
O=C(NCN1C(=O)C2C3C=CC(C3)C2C1=O)Nc1nccs1 (stereo unspecified) | nt | 0.4
O=C(c1csc2ccccc12)N1CCN(c2ccccn2)CC1 | nt | 1.7
Cc1cccc(-c2nsc(SCC(=O)NCc3ccco3)n2)c1 | nt | 0.7
O=C(Nc1ccccc1N1CCN(C(=O)c2ccc(Cl)cc2)CC1)c1cc2ccccc2o1 | i | -0.4
COc1ccc(-n2nc(C(=O)N3CCN(Cc4ccc5c(c4)OCO5)CC3)c3ccccc3c2=O)cc1 | nt | 1.4
CCOC(=O)C(CC)Sc1nc(-c2ccc(OC)cc2)nc2c1c(=O)n(C)c(=O)n2C (stereo unspecified) | nt | 0.7
Cc1ccc(C)c(N(CC(=O)NC2CCCC2)C(=O)CCCC(=O)Nc2ccccn2)c1 | i | -0.4
CN1CCN(C(CNS(=O)(=O)c2ccc(F)cc2)c2cccnc2)CC1 (stereo unspecified) | nt | -1.2

The list continues:
molecule | VCAM-1 rise | Proteasome disasm
CCOC(=O)CCc1c(C)n(CC)c2ncnn2c1=O | nt | 2.9
COc1ccc(S(=O)(=O)N2CCN(Cc3ccc(Cl)cc3)CC2)cc1 | i | 1.0
Cn1c(=O)c(=O)n(C)c2cc(S(=O)(=O)N3CCCCC3)ccc21 | i | -0.6
CCOc1nc(-c2ccncc2)nc2ccccc12 | i | -0.7
O=C1CC(c2cccnc2)c2cc3c(cc2N1)OCCO3 (stereo unspecified) | nt | 0.8
COc1cccc(-c2cc(C(=O)Nc3ccc(OC)c(OC)c3)no2)c1 | nt | -1.7
COC(=O)c1cccc(C(=O)Nc2cnc3ccccc3c2)n1 | nt | -0.3
CCn1c(Cc2ccc(OC)cc2)nnc1SCC(=O)Nc1cccc(C(=O)OC)c1 | i | -0.1
CCOC(=O)C1C2C=CC3(CN(c4cccc(Cl)c4)C(=O)C13)O2 (stereo unspecified) | i | -0.5
Cc1cc(=O)oc2ccc(OCC(=O)N(Cc3ccc(F)cc3)Cc3ccco3)cc12 | i | -0.2
CCOC(=O)C1CCN(c2c(Nc3ccc4c(c3)OCCO4)c(=O)c2=O)CC1 | i | 0.6
CN1C(=O)c2ccccc2Sc2ccc(NC(=O)N3CCCC3)cc21 | nt | -0.5
CCOC(=O)C1CCCN(C(=O)CCCOc2cc(=O)n(C)c3ccccc23)C1 (stereo unspecified) | nt | 0.5
Cc1ccc(-c2cc(C(=O)Nc3cc(C)on3)c3ccccc3n2)c(C)c1 | i | 0.4
CC(C)CN(C#N)c1nc(N2CCOCC2)nc(N2CCOCC2)n1 | nt | 0.8
COc1ccc(-c2cn3cc(C)ccc3n2)cc1OC | i | 0.5
O=C(CSCc1cccc(F)c1)N1CCN(c2ccccc2)CC1 | i | -0.3
O=C(Nc1ccc(F)cc1)NC1CCN(Cc2nnnn2Cc2ccco2)CC1 | i | -0.2
N#CCCn1ncc2ccccc21 | nt | -0.9
Cc1ccc(C)c(N2CCN(C(=O)CN(C)S(=O)(=O)c3ccc4c(c3)CCC(=O)N4)CC2)c1 | nt | 0.4
Cc1c(C(=O)NC2CC2)oc2ccc(S(=O)(=O)N3CCCCCC3)cc12 | i | 0.1
O=C1c2cccnc2C(=O)N1Cc1ccccc1 | nt | -1.9
CN1CCN(C(=O)NC2CCCN2S(=O)(=O)c2ccc(Cl)cc2)CC1 (stereo unspecified) | i | -0.6
Cn1c(C(=O)NC2CCCCCC2)cc2c(=O)n(C)c3ccccc3c21 | nt | -1.9
Cc1ccc(CNC(=O)CN2CCN(Cc3ccc(Cl)cc3)C2=O)cc1 | nt | -1.5
COc1ccc(CCNC(=O)CN(C)S(=O)(=O)c2cccs2)cc1OC | nt | -0.6
Cc1cnn(Cc2ccccc2)c1N | i | -1.8
CCCSCCCNC(=O)Cn1cc2c(n1)CCCCC2 | nt | -0.6
O=C(c1cc(-c2ccc(F)cc2)on1)N1CCCC1 | nt | -0.5
COc1ccc(S(=O)(=O)Cc2ccc(C(=O)N3CCN(c4ccccc4F)CC3)o2)cc1 | nt | 6.6
